Bioassay records deposited in PubChem BioAssay by National Center for Advancing Translational Sciences (NCATS).
Menin-MLL FL inh = inhibitors of human menin-MLL interaction, wild-type MLL peptide. Fluorescence polarization, fluorescein-MLL peptide displacement from menin. FP activity change, % at 61.4 µM. 290,000 tested, under 10 active. AID 1766; inconclusive = falling polarisation curve, or a change in total fluorescence; inactive = total fluorescence flat and polarisation flat or rising; no compound was filed as active; the % refers to the polarisation; negative = inhibition;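 note: % of control where 0% means no effect; inhibitors lower the polarisation; unlabelled MLL peptide was the positive control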
Sfp PPTase inh = blocks B. subtilis Sfp PPTase activity. Q9F4F7. Biochemical Sfp PPTase activity, qHTS. Potency, µM, without a hit: max response, negative = inhibition, actives largely listed as inhibitors. 310,000 compounds, 3.5% hits. AID 1490; active = well fitted inhibition curve with a large enough effect; inconclusive = small, poorly fitted or top-dose-only effect, or another doubt; inactive = no such curve, though single readings can be large or run the other way;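 note: the enzyme is Sfp with the accession as filed and its product quenches rhodamine fluorescence; potency is the fitted concentration of half-maximal effect; 0% = enzyme reaction without inhibitor and -100% = no enzyme wells; top concentration of the series not given in the record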
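Compounds were incubated with enzyme (final 15 nM) for 15 min at room temperature before substrate addition started the reaction. Fluorescence at 525 nm excitation, 598 nm emission was recorded immediately and after 30 minutes.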
Numbers without * were called inactive; ? = inconclusive; & = joins results of further samples; [ ] = dose if it differs, or a comment. Some of the compounds tested; the hit share may differ from the screen's.

SMILES | Menin-MLL FL inh | Sfp PPTase inh
NCCCC[C@H](N)C(=O)N[C@@H](CCCN=C(N)N)C(=O)N1CCC[C@H]1C(=O)N1CCC[C@H]1C(=O)NCC(=O)N[C@@H](Cc1ccccc1)C(=O)N[C@@H](CO)C(=O)N1CCC[C@H]1C(=O)N[C@@H](Cc1ccccc1)C(=O)O | 0.9 | 6%
N#CCCn1c(=O)c(-c2ccc(Cl)cc2)nc2cnc(Nc3ccccc3)nc21 | ? | 17%
Cn1nnnc1SCC1=C(C(=O)O)N2C(=O)C(NC(=O)C(O)c3ccccc3)C2SC1 (centres undefined) | 8.6 | -66%
Nc1ncnc2c1ncn2[C@@H]1O[C@H](COP(=O)(O)O)[C@@H](O)[C@@H]1O | -1.5[24.8 µM] | 24%
O=C(c1cnccn1)N1CCC[C@@]2(CCN(c3ccncc3)C2)C1 | 0.5 | -14%
COc1ccc2c(c1)C(=O)[C@H](OC(=O)NCc1ccco1)[C@@H](c1ccc(OC)c(Br)c1)O2 | -0.4 | -4%
O=C(c1cccc(F)c1)N1CCC2(CC1)CN(c1ccccc1)C2 | -4.6 | -11%
O=C(c1ccncc1)N1CCC2(CC1)CCN(c1ccccn1)CC2 | 2.2 | 8%
COc1ccc(-c2nc3cnc(N4CCOCC4)nc3n(Cc3cccc(OC)c3)c2=O)cc1 | 0.1 | 9%
CCNc1ncc2nc(-c3cn(C)c4ccccc34)c(=O)n(C[C@H]3CCCO3)c2n1 | ? | 14%
COc1ccc(NC(=O)N2CCCC3(CCN(S(=O)(=O)c4ccccc4)CC3)C2)cc1 | -4.0 | 22%
COc1ccc(C(=O)/C=C/c2ccccc2)cc1 | 2.0 | -13%
N[C@@H](CCCCNC(=O)CCCC[C@@H]1SC[C@H]2NC(=O)N[C@H]12)C(=O)O | 4.8 | -17%
CC(C)=CCC/C(C)=C/CO/N=C1/C[C@@H](O)[C@@H](O)[C@@H]2[C@@H]3C(=O)N(c4cccc(Oc5ccccc5)c4)C(=O)[C@H]3CC[C@@H]12 | 2.8[11.7 µM] | ?
OCC(O)C(O)C(O)CO (centres undefined) | -0.9&3.4 | 11%&8%
CCC(C(=O)O)c1ccccc1 (centres undefined) | -3.9 | 18%
CC(C)OC(=O)C[C@H](NC(=O)OC(C)(C)C)c1ccccc1 | -2.1[11.7 µM] | -2%
COC(=O)[C@@H]1C[C@@]1(C)[C@@H](NC(=O)OCc1ccccc1)c1ccccc1 | -4.1 | 23%
CCC[C@H]1C[C@H](C(=O)N[C@H]([C@@H]2O[C@H](SC)[C@@H](O)[C@H](O)[C@@H]2O)[C@H](C)O)N(C)C1 | 1.2[24.8 µM] | 11%
O=P1(O)Oc2c(c(-c3ccccc3)cc3ccccc23)-c2c(-c3ccccc3)cc3ccccc3c2O1 | -1.9 | 12%
COc1ccc(NC(=O)N2CC[C@@]3(CCCN(C(=O)c4ccncc4)C3)C2)cc1 | 1.4 | 24%
CCCCCCCC(=O)OC[C@H](CO)OC(=O)CCCCCCC | 0.6 | -3%&3%
COc1ccc2[nH]cc(CCNc3ccnc(-c4ccc(N(C)C)cc4)n3)c2c1 | 3.0 | ?
CN(C)C(=O)CCSC(SCCC(=O)O)c1cccc(/C=C/c2ccc3ccc(Cl)cc3n2)c1 (centres undefined) | -0.2 | ?
c1ccc2c(Nc3ccncc3)nc(-c3ccc4c(c3)OCO4)nc2c1 | -1.0 | -15%

Taken from the results shown, six compounds:
SMILES | Menin-MLL FL inh | Sfp PPTase inh
O=P1(O)Oc2c(c(-c3ccccc3)cc3ccccc23)-c2c(-c3ccccc3)cc3ccccc3c2O1 | -1.9 | 12%
COc1ccc(NC(=O)N2CC[C@@]3(CCCN(C(=O)c4ccncc4)C3)C2)cc1 | 1.4 | 24%
CCCCCCCC(=O)OC[C@H](CO)OC(=O)CCCCCCC | 0.6 | -3%&3%
COc1ccc2[nH]cc(CCNc3ccnc(-c4ccc(N(C)C)cc4)n3)c2c1 | 3.0 | ?
CN(C)C(=O)CCSC(SCCC(=O)O)c1cccc(/C=C/c2ccc3ccc(Cl)cc3n2)c1 (centres undefined) | -0.2 | ?
c1ccc2c(Nc3ccncc3)nc(-c3ccc4c(c3)OCO4)nc2c1 | -1.0 | -15%

More structures follow:
SMILES | Menin-MLL FL inh | Sfp PPTase inh
COC1=C(C(=O)c2ccccc2)C(=O)C2(CC=C(C)C)C[C@H](C(=O)OCC(F)(F)F)C(C)(C)[C@@]1(CC=C(C)C)C2=O (tested in a mixture with another compound) | 0.7 | 1%
COc1ncc2ncc(=O)n(C)c2n1 | -4.9 | 3%
NCCNC(=O)c1ccc(Cl)cc1 | 4.4&-1.6 | -5%
O=C1C(CCC(O)c2ccc(F)cc2)C(c2ccc(O)cc2)N1c1ccc(F)cc1 (centres undefined) | -0.8 | 15%
COC(=O)[C@@]1(Cc2ccccc2)[C@H]2c3cc(C(=O)N(C)C)n(Cc4ccc(O)c(OC)c4)c3C[C@H]2CN1C(=O)c1ccccc1 | 0.6 | -4%
COC(=O)[C@@H]1C[C@H]1[C@@H](NC(C)=O)c1ccccc1 | 1.6 | -15%
COC(=O)NC(CC(C)=O)c1ccco1 (centres undefined) | -1.2[11.7 µM] | -5%
COc1ccc(/C=C/c2ccccc2)cc1C1C2C=CCC(C)C2C(=O)N1Cc1ccccc1 (centres undefined) | -2.3 | 1%
COc1cccc([C@@H]2Oc3ccc(Br)cc3C[C@H]2OC(=O)NCCc2ccc(OC)c(OC)c2)c1 | 0.1 | -10%
C=CC1=C(C)C2=Cc3c(C=C)c(C)c4[n]3[Sn+2][n]3c(c(C)c(CCC(=O)O)c3=CC3=NC(=C4)C(C)=C3CCC(=O)O)=CC1=N2 | ? | 10µM*
COc1ccccc1CN1CC2(CCN(S(=O)(=O)c3ccccc3)CC2)C1 | -0.7 | -8%
CCN1C(=O)[C@H]2[C@H]3[C@H](O)[C@H](O)C/C(=N/OC[C@@H](O)COCc4ccco4)[C@@H]3CC[C@@H]2C1=O | -1.8&3.7[11.7 µM] | 6%&17%
N#Cc1ccccc1OC[C@H](O)CNCCNC(=O)Nc1ccccc1 | ? | 2%
CC(=O)N[C@@H](CC(C)C)C(=O)O | -3.2[24.8 µM] | 6%
COc1ccc(-c2nc3cnc(N4CCNCC4)nc3n(CCC#N)c2=O)cc1 | -8.4 | 6%
C/C(CCC(=O)OC[C@@H]1O[C@H](C#Cc2ccccc2)C=C[C@@H]1Oc1ccc(C)cc1)=N/OC[C@@H](C)[C@H](OCc1ccccc1)C(C)C | -1.0[11.7 µM] | 7%
CN(C)c1ccc(-c2nc(NCCc3cnc[nH]3)c3ccccc3n2)cc1 | 0.2 | 0%
CC(=O)N[C@@H](CSC(=O)[C@]1([C@@H](O)C(C)C)NC(=O)[C@H](C)[C@@H]1O)C(=O)O | -1.8[11.7 µM] | 1%
CN1CCN(c2ccc(Nc3c4ccccc4nc4ccccc34)cc2)CC1 | 4.1 | 14%
CCCNC(=O)OC[C@@H]1O[C@H](CCO/N=C(\C)CCC(=O)OC[C@@H]2O[C@H](c3ccccc3)C=C[C@@H]2Oc2ccc(OC)cc2)C=C[C@@H]1Oc1ccc(OC)cc1 | 0.2[11.7 µM] | 11%
O=C1C(Nc2ccccc2)=CC(=O)c2ncccc21 | -4.9 | ?
CSCC[C@H](NC(=O)[C@H](CC(C)C)NC(=O)CNC(=O)[C@H](Cc1ccccc1)NC(=O)[C@H](Cc1ccccc1)NC(=O)[C@H](CCC(N)=O)NC(=O)[C@H](CCC(N)=O)NC(=O)[C@@H]1CCCN1C(=O)[C@H](CCCCN)NC(=O)[C@@H]1CCCN1C(=O)[C@H](CCCN=C(N)N)NC(=O)CCCCC1SCC2NC(=O)NC21)C(N)=O (some centres undefined) | 0.6 | 2%
CC(=O)OC1CC2C(C)(C)C(=O)CC[C@]2(C)C2CC[C@@]3(C)C(c4ccoc4)OC(=O)C4OC43[C@]12C (some centres undefined) | -2.9 | 3%
O=C(NC(Cc1cc(=O)[nH]c2ccccc12)C(=O)O)c1ccc(Cl)cc1 (centres undefined) | -1.8 | 29%
C[Si](C)(C/C=C/CC[C@H](O)C1=CCCCC1=O)c1ccccc1 | -5.3 | -12%

(next part)
SMILES | Menin-MLL FL inh | Sfp PPTase inh
CC(C)(C)OC(=O)NCCCC1=CC2=CC(=O)C(C)(OC(=O)c3cccs3)C(=O)C2=CO1 (centres undefined) | ? | ?
Cc1ccc(C[C@@H](NS(=O)(=O)c2ccc(C(=O)O)cc2)C(=O)O)cc1 | 1.1 | 13%
CNCC(=O)NC(CCCN=C(N)N)C(=O)NC(C(=O)NC(Cc1ccc(O)cc1)C(=O)NC(C(=O)NC(Cc1cnc[nH]1)C(=O)N1CCCC1C(=O)NC(C)C(=O)O)C(C)C)C(C)C (centres undefined) | -1.0 | 6%
COC(=O)[C@@H]1CC[C@H](C)[C@@H](c2ccc(C)cc2)N1C(=O)c1ccc(/C=N\O[C@@H]2O[C@H](COC(C)=O)[C@H](OC(C)=O)[C@H](OC(C)=O)[C@H]2OC(C)=O)cc1 | -1.6[11.7 µM] | -15%
O=C(c1cnccn1)N1CCC[C@@]2(CCN(C(c3ccccc3)c3ccccc3)C2)C1 | -0.7 | 4%
Cc1oc(C)c(C(=O)Nc2ccccc2)c1C | ? | 0%
CCOC(=O)OCC1OC(c2cc(C)cc(C)c2)C=CC1OC(=O)OCC (centres undefined) | -2.5[11.7 µM] | 10%
COC(=O)C1(CC(C)C)C=C2C(=C(c3ccccc3)C(=O)C2C)CN1 (centres undefined) | ? | -5%
CO[C@@H]1COC(=O)CC=C[C@@H](C)[C@@H]2C=C[C@H](O)[C@@H](COC(=O)C/C=C\[C@H]1C)O2 | 0.3[11.7 µM] | 14%
CC(C)NC(=O)N1CCC2(CC1)CCN(C(=O)c1cccn1C)CC2 | -4.9 | 13%
N#Cc1ccc(CN2CCCC3(CCN(C(=O)c4cccc(F)c4)CC3)C2)cc1 | 18 | 13%
CC(O)C#C[Si](C)(C)c1ccccc1 (centres undefined) | -5.0 | 1%
O=C1c2c(O)cc(O)cc2OC(c2ccc(O)c(O)c2)C1O (centres undefined) | ? | -7%
CCN(c1ccccc1)c1cc(NC)[n+](C)c(C)n1 | -9.3 | 13%
CCN(CC)CCn1c(-c2ccccc2)nc2c(NCCOC)nc(C)nc21 | 1.4 | 28%
O=C(NNCNNC(=O)c1ccncc1)c1ccncc1 | 3.2 | ?
COC(=O)[C@@]1(Cc2ccccc2)[C@H]2c3cc(C(=O)N4CCCC4)n(C)c3C[C@H]2CN1C(=O)c1ccccc1 | 0.4 | 12%
O=C(O)CCCC[C@H]1SC[C@H]2NC(=O)N[C@@H]21 | -5.9[24.8 µM] | 15%
CC12CCC=CC1C(c1cccc(Br)c1)N(Cc1ccccc1)C2=O (centres undefined) | 1.2 | -9%
Cc1cc(O)cc(O)c1C(=O)OC1(C)C(=O)C=C2C=C(/C=C/CO)OC=C2C1=O (centres undefined) | ? | -9%
CN(C)c1ncc2nc(-c3cccc(C#N)c3)c(=O)n(CCC#N)c2n1 | 0.4 | 12%
CC(O)C1CCC2C3CCC4CC(O)CCC4(C)C3CCC12C (centres undefined) | 2.8 | 15%
CC(=O)O[C@]1(C)CC[C@]23CC1C(C)(C)C2CC[C@@H]3C (some centres undefined) | 0.5 | 11%
Cc1cnc(CNc2ccnc(-c3cccc(NS(C)(=O)=O)c3)n2)cn1 | -0.4 | 3%
CC1CC[C@@]2(OC1)OC1CC3C4CC[C@H]5CC(O)CC[C@@]5(C)C4CC[C@]3(C)C1C2C (some centres undefined) | -3.0 | 27%

A second format for part of the listing above.
Menin-MLL FL inh | Sfp PPTase inh | mol
-2.9 | 3% | CC(=O)OC1CC2C(C)(C)C(=O)CC[C@]2(C)C2CC[C@@]3(C)C(c4ccoc4)OC(=O)C4OC43[C@]12C (some centres undefined)
-1.8 | 29% | O=C(NC(Cc1cc(=O)[nH]c2ccccc12)C(=O)O)c1ccc(Cl)cc1 (centres undefined)
-5.3 | -12% | C[Si](C)(C/C=C/CC[C@H](O)C1=CCCCC1=O)c1ccccc1
? | ? | CC(C)(C)OC(=O)NCCCC1=CC2=CC(=O)C(C)(OC(=O)c3cccs3)C(=O)C2=CO1 (centres undefined)

Further compounds follow.
SMILES | Menin-MLL FL inh | Sfp PPTase inh
C[C@@H]1C[C@H](OC(=O)[C@@H](O)c2ccccc2)CC(C)(C)N1C | 7.1[24.8 µM] | 26%
COc1cccc(-c2ccc3ncnc(N4CCNCC4)c3c2)c1 | -0.4 | -1%
O=C1OCCC1N(C(=O)C1CC1)c1cccc(Cl)c1 (centres undefined) | 2.5 | -6%
O=C(c1cnccn1)N1CCC2(CC1)CN(Cc1cc(C(F)(F)F)cc(C(F)(F)F)c1)C2 | 4.3 | 12%
N[C@H](CCC(=O)N[C@H](CSN=O)C(=O)NCC(=O)O)C(=O)O | ? | 32µM*
COC(=O)N1CCC2(CC1)CN(C(c1ccccc1)c1ccccc1)C2 | -6.9 | ?
Cc1nc2cnc(N3CCNCC3)nc2n(CCc2ccccc2)c1=O | 16 | -8%
CC[C@H](C)[C@@H](NC(=O)O[C@H]1C(=O)c2cc(OC)ccc2O[C@@H]1c1ccc(OC)c(Br)c1)C(=O)OC | 0.2 | -17%
